Source: PubChem (National Center for Advancing Translational Sciences (NCATS))
hNpr1 antagonist: antagonists of human natriuretic peptide receptor Npr1. HEK293 hNpr1 GloSensor cGMP, ANP-stimulated luminescence. Potency, µM (titrated, usually from 46.3 µM), without a hit: top-dose activity change, negative = inhibition, usual class: inhibitors. hit rate 1.6% among 76,000. AID 1347048; active = well fitted inhibition curve with a large enough effect; inconclusive = small, poorly fitted or top-dose-only effect; inactive = no such curve, though single readings can be large or run the other way;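 note: nearly all actives have a fitted effect of over 60% in size; nearly all hits also lower the signal before the agonist is added; a reference antagonist and vehicle were the controls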
Target sequence (P16066 whole entry, looked up): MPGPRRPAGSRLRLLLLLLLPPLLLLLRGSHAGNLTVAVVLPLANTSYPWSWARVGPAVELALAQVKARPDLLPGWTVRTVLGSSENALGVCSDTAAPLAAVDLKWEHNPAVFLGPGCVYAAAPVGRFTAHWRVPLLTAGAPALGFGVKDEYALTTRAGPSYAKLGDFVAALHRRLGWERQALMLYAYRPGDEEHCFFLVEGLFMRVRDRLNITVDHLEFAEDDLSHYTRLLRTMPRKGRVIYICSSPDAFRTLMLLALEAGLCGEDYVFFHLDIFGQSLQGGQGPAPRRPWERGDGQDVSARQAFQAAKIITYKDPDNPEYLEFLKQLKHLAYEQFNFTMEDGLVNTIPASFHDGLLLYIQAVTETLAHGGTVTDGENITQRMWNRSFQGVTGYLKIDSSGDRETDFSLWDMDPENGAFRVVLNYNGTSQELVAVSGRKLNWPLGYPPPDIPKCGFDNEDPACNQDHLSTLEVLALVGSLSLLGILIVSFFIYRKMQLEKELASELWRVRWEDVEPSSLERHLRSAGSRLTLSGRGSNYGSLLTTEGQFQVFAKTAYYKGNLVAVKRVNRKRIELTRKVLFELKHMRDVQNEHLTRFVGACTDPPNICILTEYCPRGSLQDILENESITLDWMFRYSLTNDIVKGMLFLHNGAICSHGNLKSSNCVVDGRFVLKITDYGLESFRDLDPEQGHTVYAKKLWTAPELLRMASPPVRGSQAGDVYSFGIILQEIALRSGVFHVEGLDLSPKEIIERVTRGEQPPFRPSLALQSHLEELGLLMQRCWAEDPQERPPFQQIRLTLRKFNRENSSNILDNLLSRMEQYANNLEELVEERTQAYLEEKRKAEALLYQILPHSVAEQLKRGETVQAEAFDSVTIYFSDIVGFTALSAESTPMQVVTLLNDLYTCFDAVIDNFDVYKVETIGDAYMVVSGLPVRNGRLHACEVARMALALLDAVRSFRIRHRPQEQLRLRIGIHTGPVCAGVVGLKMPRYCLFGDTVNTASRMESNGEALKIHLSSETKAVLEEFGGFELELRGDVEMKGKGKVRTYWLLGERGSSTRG
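Compound pre-incubated 30 min at room temperature on GloSensor-loaded HEK293 cells stably carrying hNpr1 and the pGS-40F cGMP biosensor. Stimulation uses hNppA at 0.1 nM final; luminescence is taken at baseline and 20 min post-agonist.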
* marks the source's active call; other numbers are inactive results; ? = inconclusive; [ ] = another dose, or the depositor's remark. % is set by controls: 0 for no effect and ±100 for the full control effect; potency is the fitted concentration of half-maximal effect.

structure	hNpr1 antagonist
Cc1nonc1CC(=O)N1CCC(O)(CN2CCOCC2)C(C)(C)C1 (stereo unspecified)	-2%
CCNC(=O)N1CCC(c2ncc(C)n2C(C)C)C1 (stereo unspecified)	1%
COCC(=O)N1CCC2(CC1)CC(N1CCN(c3ccccn3)CC1)CCO2 (stereo unspecified)	5%
CC(C)C(=O)Nc1ccc(C2(C(=O)O)CCCCC2)cc1	7%
CN1CCN(c2cc(=O)c3ccnc(-c4cccc(F)c4)c3o2)CC1	-1%[70.6 µM]
CS(=O)(=O)N1CCC(C2CCN(C(=O)c3ccc(C#N)cc3)C2)CC1 (stereo unspecified)	4%
COc1ccc(CN2CC3(C2)C(=O)N(Cc2ccc(C)o2)C(=O)[C@@H]2C[C@@H](O)CN23)cc1	1%[70.6 µM]
COc1ccccc1CN1CCCC(CN(CCN(C)C)C(=O)c2cc(C(C)C)no2)C1 (stereo unspecified)	0%

Some of the entries so far, with values ahead of the structure.
| hNpr1 antagonist | compound |
| --- | --- |
| -1%[70.6 µM] | CN1CCN(c2cc(=O)c3ccnc(-c4cccc(F)c4)c3o2)CC1 |
| 4% | CS(=O)(=O)N1CCC(C2CCN(C(=O)c3ccc(C#N)cc3)C2)CC1 (stereo unspecified) |
| 1%[70.6 µM] | COc1ccc(CN2CC3(C2)C(=O)N(Cc2ccc(C)o2)C(=O)[C@@H]2C[C@@H](O)CN23)cc1 |
| 0% | COc1ccccc1CN1CCCC(CN(CCN(C)C)C(=O)c2cc(C(C)C)no2)C1 (stereo unspecified) |

Continuation.
structure	hNpr1 antagonist
COc1cccc(S(=O)(=O)N2CCCC(c3nn[nH]n3)C2)c1 (stereo unspecified)	1%
Cc1noc(C)c1CN1CCOC[C@H](O)C1	-1%[70.6 µM]
COC[C@@H]1[C@@H](NC(=O)Cc2nn(C)c(=O)c3ccccc23)[C@@H]2CCO[C@H]12	-3%
OC[C@@H]1CN(Cc2ccc3[nH]ccc3c2)C[C@H]1c1ccccn1	-1%
O=C(CCc1ccccc1)N1CCC(Oc2ncccc2C(=O)N2CCCCC2)C1 (stereo unspecified)	1%
CCc1nncn1C1CCN(S(=O)(=O)c2cccc(C)c2)CC1	1%
O=C1CC(c2ccccc2)N(C(=O)Cc2cccnc2)CCCCCCN1 (stereo unspecified)	1%
O=C1NCCCCCCN(C(=O)NC2CCCCC2)[C@H]2CCCC[C@@H]12	0%
COCCN(CC1CCN(Cc2ccccc2F)CC1)C(=O)c1cc[nH]c1C	1%
COc1cccc(-c2cnc3n[nH]c(-c4ccc5c(c4)OCO5)c3n2)c1	-11%[70.6 µM]
COc1ccc(C(=O)N2CC(c3nnc(-c4ccncc4)o3)C3(CCOCC3)C2)c(C)c1 (stereo unspecified)	1%
CC(C)(C)C(=O)Nc1nc2c(s1)C[C@@H]1[C@](C)(CO)[C@H](O)CC[C@@]1(C)[C@@H]2CC(=O)Nc1cccc(O)c1	2%
CN(C)C[C@@H]1CN(Cc2ccccc2)C[C@H]1NC(=O)c1cn(C)cn1	5%
CC(=O)Nc1ccc(S(=O)(=O)N[C@H]2C[C@@H](c3nc(-c4ccccc4)no3)N(C)C2)cc1	?
Cc1nc2c(c(-c3ccc(O)cc3)n1)CN(C(=O)c1ccccc1C)CC2	1%
O=C(NCc1ccccc1Cl)c1noc(-c2ccc3c(c2)OCO3)n1	3%
COCc1nc(C2CCCN(C(=O)c3ccc(OC)nc3OC)C2)no1 (stereo unspecified)	3%
Cc1cc(C(=O)N2CCc3nnc([C@@H]4C[C@@H](O)CN4C(C)C)n3CC2)n(C)n1	4%
COCCNC(=O)CCc1c(C)nn(-c2ccc(F)cc2)c1Oc1ccc(F)cc1F	-6%
Cc1cc(C)n(CCC(=O)NCC23CCCC=C2N(CC2CC2)C(=O)CC3)n1 (stereo unspecified)	-13%
COc1ccccc1-c1cc(-c2ccc(=O)[nH]c2)c2cncn2c1	?
FC(F)(F)c1cccc(Nc2cnc3ccc(-n4ccnc4)nn23)c1	-2%[70.6 µM]
O=C(N1CC(Oc2ccc(-c3nc(-c4ccccc4)no3)cc2)C1)C1(c2ccccc2)CC1	?
O=C(c1n[nH]c2ccccc12)N1CCC(Cc2nc(-c3ccncc3)n[nH]2)CC1	2%
COc1ccc2[nH]c3c(c2c1)CCNC31CCN(C(=O)c2c(C)noc2C)CC1	2%
OC[C@@H]1CNC[C@H]1C1CCN(Cc2ccncc2F)CC1	1%
COc1ccc(-c2ccc3ncc(Nc4ccnc(N5CCOCC5)c4)n3n2)cn1	3%[70.6 µM]
COc1ccc(NC(=O)[C@@H]2C[C@H](c3ccc(F)cc3)N([S+](=O)([O-])C3CC3)C2)cc1OC	3%
O=C(COc1ccc(-c2nnc3n2CCCC3)cc1)N1CCN(c2ccccc2F)CC1	-3%
O=C(NCc1ccccc1)c1cnc2n1CCN(Cc1cccc(O)c1)CC2	-10%[70.6 µM]
CN(CC1CCOCC1)C(=O)c1ccc(F)c(Cl)c1	-6%
Cc1cn2nc(C(=O)NCc3cccnc3)cc2c(=O)[nH]1	11%
O=C1NCCCCCCN(C(=O)Cc2ccccc2)[C@H]2C[C@H](c3nc(Cc4ccccc4)no3)C[C@@H]12	-2%
CN1CC(CO)C2(CCN(Cc3ccc(Cl)cc3)CC2)C1 (stereo unspecified)	2%
CCCc1noc(-c2cn(C3CCN(C(=O)c4cc(F)ccc4Cl)CC3)nn2)n1	-4%
CN1CCCC2(CCN(c3nc4c(cc3C(N)=O)CCC4)C2)C1=O (stereo unspecified)	5%
COc1cccc(CC(=O)N2CCC3(CC2)NC(=O)N(c2ccc(F)cc2)N3)c1	0%
COCCN1C(=O)CCc2cc(NC(=O)CCc3ccccc3)ccc21	1%
COc1cccc(C(=O)NCCc2nc(C3CC3)nn2Cc2ccccc2)c1	2%
CC(=O)NCCC1CCCCN1Cc1nc(C2(c3ccc(C)cc3)CCCC2)no1 (stereo unspecified)	-11%
Cc1nnc([C@@H]2CC(F)(F)CN2C(=O)c2cccc3[nH]ccc23)o1	-2%
O=C(Nc1ccc(Oc2ccccc2)cc1)c1cc2n(n1)CC(c1ccc(Cl)cc1)OC2 (stereo unspecified)	3.5µM*
COc1ccc(CN2CCC3(C2)NC(=O)c2ccccc2CO3)cc1 (stereo unspecified)	-23%
CC(C)=CCC1(CO)CCCN(Cc2ccccc2OCCO)C1 (stereo unspecified)	-2%
CC(=O)N1CCC(C(=O)N(C)C2CCc3nn(C)c(=O)n3CC2)CC1 (stereo unspecified)	0%
CN(C)CCCn1ccnc1C1CCN(C(=O)C2CCCN(C)C2)CC1 (stereo unspecified)	7%
COc1cc(CCC(=O)N(C)C2CCc3nn(CC4CC4)c(=O)n3CC2)on1 (stereo unspecified)	1%
COc1cc(NC(=O)NC[C@H]2O[C@@H](CO)[C@@H](O)[C@H]2N2CCCCC2)cc(OC)c1	3%
O=C(CN1C(=O)NC(c2ccccc2Cl)C2=C1COC2=O)NC1CCCC1 (stereo unspecified)	1%
NC(=O)CCNC(=O)C1=C[C@@H](NC(=O)Cc2cccs2)[C@@H](O)[C@H](O)C1	10%[70.6 µM]
CCOCC1(C)COc2ccc(C(=O)N(C)c3ccccc3)cc2N1 (stereo unspecified)	-13%[70.6 µM]
CCc1ccc(CNC(=O)c2nnn3cc(C)[nH]c(=O)c23)cc1	-30%
Cc1cccc(C(=O)N2C(C(=O)N3CCOCC3)COC23CCN(C(=O)c2cccc(F)c2)CC3)c1 (stereo unspecified)	-2%
C=CCN(C)C(=O)C[C@@H]1c2nc(NC(=O)c3cccs3)sc2C[C@@H]2[C@](C)(CO)[C@H](O)CC[C@]21C	-6%
Oc1ccc(-c2nc(C3CC3)nc3c2CN(CC2CCCCC2)CC3)cc1	2%
O=c1c2nc(-c3ccoc3)ccc2ncn1Cc1ccccc1	-1%[70.6 µM]

(next part)
structure	hNpr1 antagonist
CN(C)C[C@@H]1CN(c2ccncn2)C[C@H]1NC(=O)c1ccsc1	-1%
COc1cccc(S(=O)(=O)N2CCCN(C)c3ccccc32)c1	-6%
Cc1cccc(NC(=O)N2CCc3c(c4cc(F)ccc4n3C)C2)c1	-15%
O=C([C@H]1C[C@H](Oc2ccccc2)CN1C(=O)c1cccc(F)c1)N1CCOCC1	-7%
CNC(=O)[C@@H]1CCCC[C@@H]1C(=O)N1CCn2nc(Cc3ccccc3)cc2C1	2%
OCc1cccc(-c2ccc3ncc(Nc4ccnc(N5CCOCC5)c4)n3n2)c1	6%[70.6 µM]
O=C(NCc1ccc(Cl)cc1)C1CCCN(C2CCN(C(=O)C3CC3)CC2)C1 (stereo unspecified)	-9%
COCCn1ncc(N2CCCC(CC(=O)Nc3cccc(Cl)c3)C2)cc1=O (stereo unspecified)	-3%
CCOc1cccc(CN2CCCC(COc3ccccc3C(=O)N3CCCC3)C2)c1 (stereo unspecified)	-3%
CNC(=O)[C@@H]1CN(C(=O)c2ccc(OC)c(F)c2)C[C@H]1COC	7%
CCC1Oc2ccc(NC(=O)c3ccccc3)cc2CN(Cc2cc(F)cc(F)c2)C1=O (stereo unspecified)	-22%
CCc1cccc(NC(=O)N2c3ccccc3CC2c2nc(CCOC)no2)c1 (stereo unspecified)	3%
Cc1nc(NCCc2nccc(-c3ccccc3)n2)cc(C2CC(O)C2)n1 (stereo unspecified)	-17%
CC(=O)N1CCC(N[C@H]2C[C@@H](Cc3cc(CN4CCCCC4)on3)C2(C)C)CC1	0%[70.6 µM]
O=C(NC1CCN(c2nc3ncccc3o2)CC1)c1ccccc1Cl	12%
COc1cc(OC)cc(-c2nc(C3CC(=O)N(Cc4ccccc4OC)C3)no2)c1 (stereo unspecified)	-14%

Of the compounds above, 3 contain a thiophene ring, fused or not:
structure	hNpr1 antagonist
NC(=O)CCNC(=O)C1=C[C@@H](NC(=O)Cc2cccs2)[C@@H](O)[C@H](O)C1	10%[70.6 µM]
C=CCN(C)C(=O)C[C@@H]1c2nc(NC(=O)c3cccs3)sc2C[C@@H]2[C@](C)(CO)[C@H](O)CC[C@]21C	-6%
CN(C)C[C@@H]1CN(c2ccncn2)C[C@H]1NC(=O)c1ccsc1	-1%

Continuation:
structure	hNpr1 antagonist
CC1CCC2(CC1)OCC(C(=O)NCc1ccccc1F)N2C(=O)c1ccc(F)cc1 (stereo unspecified)	-12%
Cc1ccc(C2Cn3nnc(-c4noc(-c5cccc(F)c5)n4)c3CO2)cc1 (stereo unspecified)	3%
CC(C)CN(Cc1cccnc1)C1CN(C(=O)NCc2ccccc2)C1	-3%
Cc1cnc(-c2ccncc2)n1C1CCN(C(=O)COc2ccc(F)cc2)CC1	2%
O=C1NCCCCCCN(C(=O)C2CC2)[C@H]2C[C@H](C(=O)N3CCc4ccccc4C3)C[C@@H]12	-1%
CN(Cc1ccccc1)[C@H]1[C@H](O)[C@H](CO)O[C@@H]1CNCc1ccc(F)cc1	7%
CCOc1ccc(NC(=O)Cn2c(-c3ccccc3)nc(C)cc2=O)cc1	-3%
CNC(=O)c1noc([C@@H]2CC(F)(F)CN2C2CCOCC2)n1	12%
Cc1cccc(C(=O)N2CCC(CC(=O)NCc3ccccc3)C2)c1 (stereo unspecified)	1%
O=C(Cc1cccn1-c1cccc(Cl)c1)NCCCN1CCCC1	-9%
CC(C)Oc1cccc(-c2n[nH]c3c2CC(=O)N(c2ccccc2)C3)c1	0%[70.6 µM]
CS(=O)(=O)c1ccc(O[C@H]2COCCN(C3CCC3)C2)cc1	3%[70.6 µM]
COc1cccc(C(=O)NCC2Cn3cccc3C(=O)N2Cc2ccccc2)c1 (stereo unspecified)	-16%
NC[C@H]1O[C@@H]2C[C@@H](CC(=O)N3CCC(F)(F)C3)O[C@@H]2[C@@H]1O	-2%[70.6 µM]
COc1ccc(Nc2cnc3ccc(-c4ccccc4)nn23)cc1	-12%[70.6 µM]
Cc1nc(-c2ccc(F)cc2)n(CC(=O)Nc2ccc(C(F)(F)F)cc2)c(=O)c1CCO	-16%
COc1ccc(CNC(=O)C2CN(S(=O)(=O)c3cccnc3)CC23CCCCC3)cc1 (stereo unspecified)	6%
CN(C)C1(CNC(=O)c2ccc(OC3CCN(C(=O)C4CC4)CC3)cc2)CCCCC1	6%
COc1ccc(-c2cc3nc4c(c(=O)n3[nH]2)CN(C(=O)Cc2ccccc2)CC4)cc1	4%
CCc1nc(-c2c3n(c(=O)n(CC(=O)Nc4ccccc4Cl)c2=O)CCCCC3)no1	-12%
CC(C)CCNC(=O)c1ccc(CN2C(=O)NC3(CCS(=O)(=O)CC3)C2=O)cc1	1%
Cc1c(-c2ccc(F)cc2)[nH]c2ccc(CNC(=O)[C@@H]3CCCO3)cc12	-17%
COc1ccc(-c2cnc3[nH]cc(CC(=O)Nc4ccc(OC)nc4)c3c2)cc1	?
O=C(Nc1ccc(Cl)cc1)c1nc2c(o1)CCN(Cc1ccccc1)CC2	4µM*
COC(=O)N1CCn2c(nn(-c3ccc([N+](=O)[O-])cc3)c2=O)C1	6%[70.6 µM]
Cc1cnc(CC2CCCN(C(=O)C3(c4ccccc4)CC3)C2)n1Cc1ccc(F)cc1 (stereo unspecified)	-3%
COC[C@]1(O)CCN(C(=O)c2oc(COc3ccccc3)cc2C)CC1(C)C	0%
Cc1nnc(-c2cc(-c3ccc(CO)cc3)ccn2)n1CCc1ccccc1	4%[70.6 µM]
Cc1cc(N(C)CC(C)N2CCOCC2)n2nccc2n1 (stereo unspecified)	5%
CC(C)CN1C(=O)c2cccn2CC1C(=O)Nc1ccccc1F (stereo unspecified)	4%

Some of the compounds tested; count on the stated rates, not on these rows.
